Screening results from PubChem BioAssay.
VDR inh: blocks the human vitamin D receptor; AID 504847; VDR-SRC2-3 peptide fluorescence polarization, 2 h; 0.93% of 400,000 active; P11473; Potency, µM, for the others: max response, negative = inhibition, actives largely listed as inhibitors; active = well fitted inhibition curve with a large enough effect; inconclusive = small, poorly fitted or top-dose-only effect, or another doubt; inactive = no such curve, though single readings can be large or run the other way; note: series mostly up to about 120 µM
Target sequence (P11473 whole entry, looked up): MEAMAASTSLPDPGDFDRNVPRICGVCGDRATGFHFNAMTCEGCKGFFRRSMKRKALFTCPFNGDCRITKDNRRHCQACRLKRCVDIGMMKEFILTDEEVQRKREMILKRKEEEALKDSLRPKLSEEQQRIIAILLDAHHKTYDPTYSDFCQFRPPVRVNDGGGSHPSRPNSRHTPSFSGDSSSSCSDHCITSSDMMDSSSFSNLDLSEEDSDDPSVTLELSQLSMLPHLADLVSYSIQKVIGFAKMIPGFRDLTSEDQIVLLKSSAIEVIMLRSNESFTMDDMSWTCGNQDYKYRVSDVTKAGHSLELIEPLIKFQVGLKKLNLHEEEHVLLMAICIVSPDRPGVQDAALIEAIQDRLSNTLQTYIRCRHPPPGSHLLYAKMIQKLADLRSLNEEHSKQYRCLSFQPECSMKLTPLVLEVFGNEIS
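Fluorescence polarization assay measuring small-molecule disruption of VDR binding to the coregulator peptide SRC2-3. Compounds were pin-transferred (23 nl) into the reagent mix and incubated 2 h at room temperature before reading.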
* hit, by the source's call; u = inconclusive; & = joins results of further samples. % is set by controls: 0 for no effect and ±100 for the full control effect; potency is the fitted concentration of half-maximal effect. An excerpt; count on the stated rates, not on these rows.

VDR inh,Compound
10.2%,COc1cc(NC(=O)c2ccc(Br)o2)c(C(=O)O)cc1OC
-7.1%,COc1ccc(-c2ccc3c(c2)C2CC3CCN2CCC#N)cc1 (stereo not drawn)
3.6%,C=CCN1C(=O)c2ccc(C(=O)N(C)CC(=O)Nc3cccc(F)c3)cc2C1=O
-18.0%,COc1ccc(-c2nn(-c3ccccc3)cc2C(=O)N2CCN(S(=O)(=O)c3cccc(F)c3)CC2)cc1
16.6%,C=CCOc1c(Cl)cc(CNn2cn[nH]c2=S)cc1OC
2.2%,Cc1nn(C(=O)c2ccco2)c(C)c1Sc1ccc([N+](=O)[O-])cc1
6.6%,CC(C(=O)N1CC2(C)CC1CC(C)(C)C2)N1C(=O)c2ccccc2C1=O (stereo not drawn)
1.6%,O=C(Cc1cccs1)NCCc1cn2ccccc2n1
17.5%,O=C(O)c1ccc(CSc2nnnn2C2CCCCC2)cc1
u,Cc1cc(C)nc(SCC(=O)NC2=NC(=O)C(C)S2)n1 (stereo not drawn)
u,Cc1ccc(/C=C/C(=O)Nc2cc(=O)n(C)c(=O)n2C)o1
-8.1%,Clc1ccc(-c2ccc(/C=N/Nc3cc(N4CCOCC4)nc(N4CCOCC4)n3)o2)cc1
-3.6%,COc1cccc(NC(=O)/C(C#N)=C/c2c(C)n(Cc3ccccc3)c3ccccc23)c1
9.5%,COc1cc(C(=O)N/C(=C\c2cn(C)c3ccccc23)C(=O)NCCN2CCOCC2)cc(OC)c1OC
-2.7%,Cc1cc[n+](-c2nc([O-])sc2/C=N/Nc2ccc([N+](=O)[O-])cc2)cc1
15.6%,CN(C)c1ccc(C(O)P(=O)(OCc2ccccc2)c2ccc(N(C)C)cc2)cc1 (stereo not drawn)
-23.1%,COc1cccc(CC(=S)N2CCOCC2)c1
4.5%,Cc1ccc(NC(=S)NNC(=O)c2ccco2)cc1
10.1%,Cc1cc(O)cc2c(=O)c3ccccc3sc12
-12.1%,Cn1c(C2CCCN2C(=O)OC(C)(C)C)n[nH]c1=S (stereo not drawn)
-4.9%,COc1ccc(N(CCC(=O)NCCc2ccccc2)S(=O)(=O)c2ccc(C)cc2C)cc1
-2.5%,CCN(C(=O)COC(=O)c1cc(S(=O)(=O)N2CCOCC2)ccc1F)C1CCS(=O)(=O)C1 (stereo not drawn)
-10.4%,Cc1cccc(C(=O)NCCCNC(=O)c2ccccn2)c1
24.3%,O=C(Nc1cccnc1)c1ccccc1-c1nc(-c2ccccc2F)no1
-10.1%,COc1ccc(CNCCCC(=O)Nc2c(Cl)ccc(C)c2Cl)cc1OC
-10.0%,O=C(Nc1nc2ccccc2[nH]1)Nc1ccccc1F
-4.3%,Cc1ccc(NC(=O)C2CCCN(S(=O)(=O)c3cccc4cccnc34)C2)cc1Cl (stereo not drawn)
-1.9%,CCOc1ccc(C(=O)NNC(=O)C2CC(=O)N(c3ccc(C)cc3)C2)cc1 (stereo not drawn)
8.2%,Cc1ccccc1C(=O)Nc1cc(S(=O)(=O)N2CCCCC2)ccc1N1CCN(C)CC1
12.6%,CCNC(=O)CN1C(=O)NC2(CCOc3ccccc32)C1=O (stereo not drawn)
-2.5%,CCc1ccccc1N1C(=O)N(CC(=O)c2ccc(OC)cc2)c2ccccc2S1(=O)=O
14.3%,Cc1cccc(C(C(=O)NC2CCCCC2)N(C(=O)c2csnn2)C2CC2)c1 (stereo not drawn)
7.5%,CN1CCN(C2(CNC(=O)COc3ccc(C(C)(C)C)cc3)CCCCC2)CC1
-14.9%&-7.1%,CC(C)NC(=O)CCN1C(=O)c2ccccc2Sc2ncccc21
-0.8%,CC(=O)c1cc(C(=O)N2CCc3c([nH]c4ccccc34)C2CC(C)C)[nH]n1 (stereo not drawn)
-8.1%,COC(=O)Cn1ncc(N2CC(C)OC(C)C2)c(Cl)c1=O (stereo not drawn)
0.7%,CC(C)CN(C(=O)COC(=O)CNC(=O)c1ccc(Cl)cc1)C1CCS(=O)(=O)C1 (stereo not drawn)
-0.2%,Cc1ccc(NC(=O)Cn2cnc3onc(-c4ccc(F)cc4)c3c2=O)c(Cl)c1
-18.3%,CCCc1cc(=O)n2[nH]c(C)c(-c3ccc(OC)cc3)c2n1
5.4%,Cc1cccc(/C(N)=N/OC(=O)CCCN2C(=O)c3ccccc3C2=O)c1
14.5%,CCOC(=O)C1CCN(c2cc(=O)n(-c3ccccc3Cl)c(=O)[nH]2)CC1
4.4%,CCn1c(Cc2ccccc2)nnc1SCC(=O)NC(C)(C)C
4.5%,CCCc1ccc(-c2ccc(-c3noc(-c4ccncc4)n3)cc2)nc1
5.0%,Cc1ccc(NC(=O)N2CCC(C(=O)Nc3ccc(C)cc3C)CC2)cc1
0.8%,CN(C)CCCN(C(=O)c1ccc(S(=O)(=O)N2CCOCC2)cc1)c1nc2ccc(F)cc2s1
9.7%,CCOc1ccc(NC(=O)c2cccc3c2C(=O)N(CCOC)C3)cc1
-13.3%,O=C(/C=C/c1ccco1)N(Cc1cccc(Cl)c1)C1CCS(=O)(=O)C1 (stereo not drawn)
-7.3%,O=C(O)c1cnn2c(-c3ccc(F)cc3)ccnc12
0.5%,CC1(C)C(=O)CCC2(C)C1=CCC1C2C(=O)CC2(C)C1CCC2(O)C(=O)CO (stereo not drawn)
0.0%,COc1ccccc1C1=NOC(Cn2c(=O)c3c(ncn3C)n(C)c2=O)C1 (stereo not drawn)

Other entries
VDR inh,Compound
u,O=C(/C=C/c1ccccn1)c1cc(Br)ccc1O
5.4%,CCc1ccc(NC(=O)c2cnn(-c3c(C)cccc3C)c2C2CCN(C(=O)OC(C)(C)C)CC2)cc1
1.5%,COc1cc(SC)ccc1C(=O)Nc1ncc(C)s1
-13.6%,COCCCn1c(=O)c2sccc2n(Cc2ccccc2)c1=O
-0.3%,CC(=O)c1ccc(NC(=O)c2cnsn2)cc1
-3.6%,COc1ccc(CCNC(=O)N2c3ccccc3Sc3ccccc32)cc1
3.6%,Cc1cccc(Cn2cnc3ccccc32)c1
-11.7%,O=C(/C=C/c1ccco1)Nc1ccc2nc3n(c(=O)c2c1)CCCC3
-18.1%,Cc1cccc(C)c1NC(=O)CSc1cc(C(=O)c2nccn2C)c2ccccc2n1
-15.9%,CCC1CCCCN1S(=O)(=O)c1ccc(NC(=O)C2CC(=O)N(C(C)(C)C)C2)cc1 (stereo not drawn)
31.6µM*,COc1ccc(C2CC(=O)N3CN(c4ccc(C)c(Cl)c4)CSC3=C2C#N)cc1 (stereo not drawn)
-23.7%,O=C(Nc1nc2c(F)cc(F)cc2s1)c1ccc([N+](=O)[O-])o1
-5.1%,Cc1cccc(NC(=O)c2ccc3c(c2)OCCO3)n1
1.4%,NS(=O)(=O)c1ccc(NC(=O)CCc2ccccc2)cc1
u,CCCCNc1ncnc2sc3c(c12)CCN(CCC)C3
-12.0%,Nc1[nH]c2cc([N+](=O)[O-])ccc2c1-c1ccccn1
-16.2%,O=C(Nc1ccccc1)/C(=C1\CCCN1)[N+](=O)[O-]
6.6%,COc1ccc(C)cc1NC(=S)Nc1ccccc1SC
-4.2%,CCN(C(=O)c1cc2c(=O)oc3ccccc3c2s1)c1cccc(C(F)(F)F)c1
-6.6%,COc1ccc(N(C)S(=O)(=O)c2cccc(C(=O)NCC3CCCO3)c2)cc1 (stereo not drawn)
7.1%,O=S(=O)(c1ccccc1)c1nnn2c1nc(NCc1ccc(Cl)cc1)c1sccc12
-22.1%,CCOc1ccc(CCNC(=O)COC(=O)c2cc(OC)cc(OC)c2)cc1OCC
3.2%,Cc1c(C(=O)Nc2nc3ccccc3[nH]2)oc2ccc(Br)cc12
-9.0%,Cc1nn(Cc2ccccc2)c(C)c1CCC(=O)O
3.5%,O=C(Nc1ccc(Cl)cc1)c1nc[nH]c1C(=O)NCCCCNC(=O)c1[nH]cnc1C(=O)Nc1ccc(Cl)cc1
-6.8%,COc1ccc(-n2c(=S)[nH]c3cc(C(=O)N4CCN(c5ccccc5)CC4)ccc3c2=O)cc1
-1.1%,CN(CC(=O)Nc1cccc(F)c1)C(=O)COc1ccc2c(c1)CCC2
-11.0%&-8.3%,COc1ccc(C2/C=C\CN(S(=O)(=O)/C=C/c3ccccc3)CC(=O)N2Cc2ccc(F)cc2)cc1 (stereo not drawn)
4.0%,CCOC(=O)c1sc(NS(=O)(=O)c2ccccc2)nc1C
13.2%,Cn1c(C(=O)N2CCN(C(=O)c3ccco3)CC2)cc2c(=O)n3ccccc3nc21
25.7%,CCCC(=O)N(c1ccc(OC)cc1)C1C=CS(=O)(=O)C1 (stereo not drawn)
21.5%,CCOC(=O)C(C)n1cnc2c(cnn2-c2ccc(Cl)cc2)c1=O (stereo not drawn)
-8.6%,N#C/C(=C\c1cccc(Oc2ccc(C(F)(F)F)cc2[N+](=O)[O-])c1)c1nc2ccccc2[nH]1
-1.4%,COc1ccc(C)cc1NC(=O)NC(C)c1ccncc1 (stereo not drawn)
-5.0%,CCCCNC(=O)C1CC(=O)N(CCC(C)C)C1 (stereo not drawn)
-19.9%,CCc1nn(CC(=O)Nc2cccc(C(C)=O)c2)c(=O)c2cc3sccc3n12
19.8%,Cc1ccc(C)c(NCC(O)c2ccccc2)c1 (stereo not drawn)
-3.4%,CCNC(=S)Nc1ccc(OC(F)(F)F)cc1
20.2%,Cc1nc(SCc2ccc(OCCC(C)C)cc2)n[nH]1
-13.5%,COC(=O)C(CCC(C(=O)OC)N1C(=O)c2ccccc2C1=O)N1C(=O)c2ccccc2C1=O (stereo not drawn)
-3.7%,Cc1ccc(NC(=O)CNc2ccccc2N2CCCC2=O)cc1S(=O)(=O)N1CCOCC1
-8.4%,COc1ccc(-c2cc(C(=O)Oc3ccc(Br)cc3)c3ccccc3n2)cc1
-3.2%,O=C(NC1CCCCC1)C(c1ccc(O)c(O)c1)N(C(=O)Cn1nnc2ccccc21)c1cccc(O)c1 (stereo not drawn)
-23.5%,Cc1cc(Cl)ccc1Oc1ccccc1C(=O)CC#N
-9.6%,COc1ccccc1C1=NOC(CN2C(=O)c3ccccc3S2(=O)=O)C1 (stereo not drawn)
u,c1ccc2c(C3=NNC(=NC4CC4)SC3)c[nH]c2c1
5.3%,Cc1cc(=O)c(C(=O)O)c(C)n1-c1ccccc1
u,COc1ccccc1NS(=O)(=O)c1cc(NC(=O)Nc2cccc(C)c2)ccc1N1CCCCC1
4.6%&-8.3%,COc1ccc(CC(=O)c2ccc(O)cc2O)cc1
-15.5%,COc1ccccc1N1CCN(C(=O)c2ccc3nc[nH]c3c2)CC1

(further entries)
VDR inh,Compound
-7.0%,C=CCS/C(N)=N\N=C\c1cc(Br)cc([N+](=O)[O-])c1O
2.8%,CCN1CCN(c2ccc(S(=O)(=O)N3CCOCC3)cc2NC(=O)c2ccc(C)cc2C)CC1
8.3%,Cc1ccc(OCCN2CCN(C(=O)CCC(=O)Nc3nnc(C(C)C)s3)CC2)cc1
-1.8%,CCOc1ccccc1C1CC(c2cccc(NS(C)(=O)=O)c2)=NN1C(=O)c1ccccc1 (stereo not drawn)
8.5%,CCn1ccc2cc(S(=O)(=O)N3CCCN(C(=O)Nc4ccccc4C(F)(F)F)CC3)ccc21
-11.3%,CN(c1ccc(OCC(=O)OCC(=O)Nc2c(F)c(F)c(F)c(F)c2F)cc1)S(=O)(=O)c1ccc(F)cc1
-8.1%,COC(=O)c1c(C)[nH]c(C(=O)C(C)OC(=O)C2=NNC(=O)CC2)c1C (stereo not drawn)
-15.2%,COc1ccc(NC(=O)CN2C(=O)NC(C)(C3CC3)C2=O)cc1S(=O)(=O)N1CCCCC1 (stereo not drawn)
-3.5%,CCOc1ccc(N(CC(=O)N/N=C/c2cc(Br)c(C)o2)S(C)(=O)=O)cc1
-17.1%,CC(C)CCN1C(Nc2ccccc2)=NC[C@@H]1CC(C)C
6.1%,O=S(=O)(Nc1ccc(Br)cc1)c1cccc2cccnc12
-4.0%,CC1(OC(=O)CCc2ccccc2)C(=O)C=C2C=C(c3ccc(C#N)cc3)OC=C2C1=O (stereo not drawn)
-5.4%,CC(C(=O)N1CCOCC1)N1C(=O)c2ccccc2C1=O (stereo not drawn)
14.8%,Cc1ccc(S(=O)(=O)c2cn(C)c3cc(N4CCOCC4)c(F)cc3c2=O)c(C)c1
-17.6%,CN1CCN(c2ccc(S(=O)(=O)N3CCCCC3)cc2NC(=O)COc2ccc(F)cc2)CC1
-8.8%,CCN1C(=O)CSc2ccc(C(=O)NCc3ccco3)cc21
-23.3%,O=C(Nc1ccc2oc(-c3ccc4ccccc4c3)nc2c1)c1cccc(Cl)c1Cl
-7.5%,[O-]/C(=C(\C(=S)NCCN1CCOCC1)[n+]1ccccc1)c1ccc(Cl)s1
9.5%,[O-][n+]1c2ccccc2c2n1CCN=C2c1ccc(Cl)cc1
-1.6%,Cc1[nH]c2ccccc2c(=O)c1SC(F)(F)C(F)C(F)(F)F (stereo not drawn)
